Compound activity as filed in PubChem.
Vif A3G: inhibitors of Vif binding to APOBEC3G peptide, primary screen, biochemical, TR-FRET, GST-Vif 1-94, biotin-A3G peptide, dose response retest (AID 1117319); one-dose inhibition, %; IC50 in µM for titrated hits; TR-FRET GST-Vif / biotin-A3G peptide binding; higher % means a stronger effect; test concentration not given here; strong numbers were not always called active; 260,000 tested, 0.57% active; Virion infectivity factor (Human immunodeficiency virus type 1 group M subtype B (isolate …;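 active means above the screen mean plus three standard deviations and confirmed in dose response; inconclusive means results disagree or hit not tested in dose response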;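 further: Vif residues 1-94 fused to GST binding biotinylated APOBEC3G peptide 110-148; 0% = full assay without inhibitor and 100% = GST in place of GST-Vif; retest series ran down from 100 µM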
Calb FLC: C. albicans growth inhibition with fluconazole, primary screen, CaCi-2 strain, Alamar Blue fluorescence; 300,000 tested, 0.57% active; AID 1979, 2009; C. albicans CaCi-2 (fluconazole-resistant clinical isolate) + fluconazole, 48 h; growth inhibition, % (no concentration beside the values);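 active means most replicates above 75%; inconclusive means exactly half above 75%; inactive means most below 75%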;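 further: all wells also contain fluconazole at 8 µg/ml as a sub-toxic cotreatment; 0% = median of DMSO wells and 100% = median of geldanamycin control wells; wells of about 8 µL received 7.5 nL stock; the first replicate is given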
T cruzi inh: inhibitors of intracellular T. cruzi growth, primary screen, luminescence, NIH3T3 host cells | inhibition, % (concentration not given with the values) | T. cruzi beta-gal in NIH3T3, 90 h | 300,000 tested, 1.4% active;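 active means mean inhibition across valid replicates above about 55%, limit read from the data; inconclusive means mean below that limit but half or more replicates reach it; inactive means mean below it, under half of replicates reach it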;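 further: signal also drops with host cell toxicity which is not excluded here; 0% = plate median of DMSO wells and 100% = zero luminescence signal; higher percent means less beta-gal luminescence so fewer parasites; stock transfer was 50 nL into about 50 µL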
LANA-H2B inh: blockers of LANA interaction with H2A/H2B – biochemical, FP readout, HTS, primary screen | Protein LANA1 (Human herpesvirus 8 type P (isolate GK18)), Q9QR71 | cell-free LANA-H2A/H2B peptide, fluorescence polarization | inhibition, % (test concentration not listed) | 320,000 tested, 0.6% active | AID 2629, 2010; in the data active means inhibition mostly above about 10%, no sharp cut-off; inactive means mostly below about 6.7%;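 further: stock transfer was 7.5 nL into about 10 µL; 0% = median of vehicle wells and 100% = median of positive control wells; one replicate is shown; the record names a cut of 25% in any replicate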
Target sequence (Q9QR71 whole entry, looked up): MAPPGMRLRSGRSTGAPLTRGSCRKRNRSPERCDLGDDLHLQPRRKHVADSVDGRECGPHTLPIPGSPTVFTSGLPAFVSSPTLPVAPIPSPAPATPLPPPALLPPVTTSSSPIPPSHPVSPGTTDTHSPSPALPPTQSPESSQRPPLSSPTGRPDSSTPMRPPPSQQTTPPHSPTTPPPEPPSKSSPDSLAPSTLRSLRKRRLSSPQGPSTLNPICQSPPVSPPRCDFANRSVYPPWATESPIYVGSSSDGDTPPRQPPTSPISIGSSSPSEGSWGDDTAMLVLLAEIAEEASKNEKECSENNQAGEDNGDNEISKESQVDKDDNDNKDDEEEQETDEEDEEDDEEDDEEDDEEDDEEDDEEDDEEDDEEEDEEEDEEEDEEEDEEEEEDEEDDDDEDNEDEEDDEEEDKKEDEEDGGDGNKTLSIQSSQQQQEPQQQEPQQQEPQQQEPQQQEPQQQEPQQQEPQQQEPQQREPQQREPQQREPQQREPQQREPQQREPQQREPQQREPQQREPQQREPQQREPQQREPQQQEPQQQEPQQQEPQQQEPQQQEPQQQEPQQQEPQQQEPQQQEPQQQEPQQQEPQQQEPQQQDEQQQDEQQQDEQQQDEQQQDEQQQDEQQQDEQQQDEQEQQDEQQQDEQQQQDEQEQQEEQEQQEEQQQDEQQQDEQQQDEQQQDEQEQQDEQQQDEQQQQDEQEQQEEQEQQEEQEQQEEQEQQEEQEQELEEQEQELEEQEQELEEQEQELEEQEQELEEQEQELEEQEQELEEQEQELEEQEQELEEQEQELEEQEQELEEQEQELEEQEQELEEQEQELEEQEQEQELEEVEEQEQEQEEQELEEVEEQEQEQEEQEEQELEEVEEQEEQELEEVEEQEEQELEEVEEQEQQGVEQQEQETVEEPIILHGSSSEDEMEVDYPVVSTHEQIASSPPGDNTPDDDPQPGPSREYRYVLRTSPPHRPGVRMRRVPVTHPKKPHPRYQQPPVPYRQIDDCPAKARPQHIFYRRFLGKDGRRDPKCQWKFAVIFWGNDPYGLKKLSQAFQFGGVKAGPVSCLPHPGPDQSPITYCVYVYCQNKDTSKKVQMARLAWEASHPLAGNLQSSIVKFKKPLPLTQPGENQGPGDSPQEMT
MLL AF4-AF9 inh: inhibitors of AF4 peptide binding to AF9, primary screen, biochemical, AlphaScreen, biotin-AF4 peptide, FLAG-AF9, single point. inhibition, % at 10 µM. 350,000 tested, 0.47% active;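 active means every replicate reaching a set inhibition limit, whatever the replicate mean, cut at about 25% in these data; inconclusive means mean inhibition reaches that limit but some replicates miss it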;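 further: 0% = plate neutral control median and 100% = total signal loss; the record names both 10 and 1 µM as test concentration; the first replicate is given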
A1 inh: caspase 3/7 activation in MEF A1-2A-BIM cells, primary screen, A1 inhibitor project, cell-based, luminescence, HTS. Caspase-Glo 3/7 luminescence, 3 h; percent of clofoctol response, vehicle zero. caspase activation, % (no concentration beside the values). 330,000 tested, 0.066% active. AID 2462, 2010;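 active means over half of replicate activation scores above 10%, or exactly half above 10 with the replicate mean above 10; inconclusive means replicate mean below 10 yet half the replicates above 10; inactive means over half of replicates below 10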;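 further: wells of about 30 µL received 50 nL stock; many hits fall short of the cut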
Beta apoptosis: inhibitors of cytokine-induced beta cell apoptosis, primary screen, luminescence | INS-1E cytokine-induced death, ATP luminescence, 48 h; percent of positive-control rescue, neutral wells zero | protection from apoptosis, % (test concentration not listed) | 300,000 tested, 0.8% active | AID 435005, 2010;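 active means all replicates at 75% or more, or half of them and the mean; inconclusive means half reach 75% but not the mean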;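 further: 0% = cytokine-treated negative control wells and 100% = positive control rescue; higher means more ATP so stronger rescue from cytokine killing; wells of about 40 µL received 100 nL stock; the first replicate is given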
RanGTP-Imp inh: inhibitors of RanGTP-importin-beta interaction, primary screen, biochemical, FRET, CFP-Ran, YFP-importin-beta, homogeneous; AID 2216, 2009; inhibition, % (concentration not given with the values); 300,000 tested, 1.1% active; cell-free CFP-Ran/YFP-importin-beta FRET ratio;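 active means most replicates above 15%; inconclusive means exactly half above 15%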;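 further: 0% = DMSO wells and 100% = Ran loaded with GDP instead of GTP; wells of about 40 µL received 100 nL stock; the first replicate is given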
* hit, by the source's call; ? = inconclusive; nt = no result given; & = joins results of further samples.

SMILES	Vif A3G	Calb FLC	T cruzi inh	LANA-H2B inh	MLL AF4-AF9 inh	A1 inh	Beta apoptosis	RanGTP-Imp inh
COc1ccc(C)cc1NC(=O)CSc1nnc2ccc(-c3ccccn3)nn12	4.2%	-8.6	-1.3	-3.0	10.2	1.1	2.5	?
Cc1sc(N)nc1-c1ccc2c(c1)OCCO2	nt	0.3	2.4	-1.6	5.0	-0.3	-2.6	-1.0
O=C(CCS(=O)(=O)c1ccc(F)cc1)Nc1nnc(-c2cccs2)o1	nt	4.2	-9.3	1.8	-0.7	-0.3	nt	-1.0
O=C(c1ccncc1)N1CCN(S(=O)(=O)c2cccc(C(F)(F)F)c2)CC1	nt	nt	nt	2.2	0.0	0.0	-8.9	nt
NC(=O)C1(N2CCCCC2)CCN(S(=O)(=O)c2ccccc2)CC1	nt	7.7	-26.3	8.3	-0.6	1.7	-1.6	7.8
Cc1ccc(-c2nn(-c3ccccc3)cc2/C=N/n2c(-c3cccs3)n[nH]c2=S)cc1	23.7%	-1.9	16.7	5.8	1.8	-0.5	8.7	-3.7
O=C(N/N=C/c1cccc2ccccc12)C(=O)N1CCCC1	nt	1.4	-10.3	2.8	-21.2	-0.4	-2.4	1.5
COc1ccc2[nH]c(C(=O)O)c(NC(=O)c3ccccc3[N+](=O)[O-])c2c1	nt	2.4	-2.8	-2.8	2.1	0.1	-4.0	2.2
CC(=O)Nc1ccc(NC(=O)CSc2nc(N)c(NC(=O)c3ccco3)c(=O)[nH]2)cc1	0.3%	nt	-16.1	-5.8	-3.7	-0.6	6.4	nt
COc1ccc(CCNC(=O)C(=O)NCc2cccs2)cc1OC	-10.7%	8.7	nt	-1.5	-1.5	-0.1	-9.3	-0.3
CC(C)n1cc(NC(=O)COc2ccccc2Cl)cn1	nt	-7.3	-3.8	-1.1	-3.2	0.6	-4.2	-0.3
CC1(C)C2CCC(C2)C1(C)NC(=O)CNCC1CCCCC1 (stereo not drawn)	-10.1%	19.6	11.1	-1.1	-3.1	0.5	21.4	-1.5
CCOC(=O)Cn1cnc2c(nnn2-c2cccc(OC)c2)c1=O	-2.2%	3.0	-0.7	-1.4	-0.2	-0.7	nt	2.4
CC(C)c1cc(-c2cc(C(=O)NCc3ccccc3)on2)nc(NCC2CC2)n1	1.4%	-4.3	42.1	-0.2	-1.7	-0.5	3.8	-0.4
Cc1ccccc1CNC(=O)c1ccc(CSCc2ccccc2)cc1	-5.9%	-0.4	-0.2	-3.1	nt	-0.4	4.1	-10.9
COc1ccccc1N(CC(=O)NC1CCCCC1C)S(=O)(=O)c1cccs1 (stereo not drawn)	-1.5%	nt	nt	1.7	-3.5	1.1	-1.1	nt
Cc1cc(C)n(CCN(C)C(=O)C2CCC(=O)N(CCN3CCOCC3)C2)n1 (stereo not drawn)	nt	-7.2	-6.3	-4.5	-2.5	-1.1	-2.5	-1.6
COc1cccc(OCc2cc(C(=O)N3CCN(C4CCCCC4)C(=O)C3)no2)c1	nt	-13.5	-1.6	-1.7	1.8	0.4	-4.1	3.6
CC(=O)c1cccc(NC(=O)C(C)OC(=O)c2cccc(-n3cnnn3)c2)c1 (stereo not drawn)	3.2%	-2.3	2.6	1.4	-0.7	0.6	-1.1	6.6
COc1ccc([C@@H]2CC=C(C(=O)O)[C@H](c3ccc(F)cc3)N2S(=O)(=O)c2ccc(C)cc2)cc1OC	nt	nt	nt	3.3	0.6	0.1	2.9	nt
CC1CCCCN1Cc1c(O)ccc2c(=O)c(-c3nc4ccccc4s3)coc12 (stereo not drawn)	nt	-0.6	3.8	-0.8	-3.8	0.0	-0.8	38.0*
CC(=O)c1cccc(OCC(=O)Nc2ccccc2N2CCOCC2)c1	nt	nt	nt	11.0	0.9	0.2	2.2	nt
O=C(O)Cn1nnnc1SCC(=O)Nc1ccccc1F	-3.4%	-1.4	-6.5	-3.0	-9.3	-0.2	1.9	-2.5
Cc1ccc(C)c(-c2csc(Nc3ncccn3)n2)c1	0.1%	4.2	-4.9	1.6	0.1	-0.9	0.3	1.3
COc1ccc(C2C(C(=O)Nc3cccc(C)n3)CCC(=O)N2c2ccc(OC)cc2)cc1 (stereo not drawn)	-7.9%	-11.9	2.8	1.2	nt	-0.3	-2.0	3.6
CN1CCN(Cc2ccc(Sc3ccc(Cl)cc3)c([N+](=O)[O-])c2)CC1	24.7%	15.9	66.2*	-1.2	21.2	0.7	4.3	-0.1
CCc1c(O)nc(SCC(=O)Nc2ccccc2)n(-c2ccccc2)c1=O	?	0.0	-23.2	-1.2	3.8	1.0	-4.0	1.4
COc1cccc(CN2CCNC(=O)C2CC(=O)O)c1OC (stereo not drawn)	2.4%	-5.5	5.4	0.2	-3.5	0.2	nt	?
CC(C)N(C(=O)CN1CCN(C(=O)C2COc3ccccc3O2)CC1)C(C)C (stereo not drawn)	1.9%	nt	nt	0.7	1.4	-0.7	-12.9	nt
CCOc1ccc(OCCC(=O)OCC(=O)Nc2cc(C)nn2-c2ccccc2)cc1	nt	-6.3	3.7	0.4	-2.1	-0.9	-3.7	nt
CCOc1[nH]n(-c2ccc(Cl)cc2)c(=O)c1C=Nc1ccc(Cl)cc1	?	8.6	4.5	-2.0	nt	-0.3	3.5	-1.9
O=C(Cc1n[nH]c(=O)c2ccccc12)OCC(=O)c1ccc2c(c1)OCCO2	?	0.3	37.5	-5.3	nt	-1.3	12.7	0.1
COCCN(C(=O)Cc1ccc(OC)c(OC)c1)c1nc(-c2cc(OC)ccc2OC)cs1	nt	-1.7	15.8	-5.2	-1.4	0.0	-7.6	0.6
CC(C)(CNC(=O)c1ccc(Cl)c(S(=O)(=O)N2CCc3ccccc3C2)c1)N1CCOCC1	-4.9%	-7.3	12.3	0.1	2.4	0.8	6.1	-1.2
COc1ccc(-n2cc(CNCCN3CCOC3=O)c(-c3ccccc3Cl)n2)cc1	22.0%	-3.9	-8.6	0.6	2.7	0.0	2.1	1.9
C/C(CC(=O)Nc1ccc(F)cc1)=N\NC(=O)COc1ccccc1	0.3%	-2.0	4.2	3.7	nt	1.0	nt	-2.4
Nc1cccnc1S(=O)(=O)c1ccccc1	-1.6%	-4.0	-13.1	-0.6	-2.9	-0.4	-2.6	-1.3
CCOc1ncccc1C(=O)OCC(=O)N1CCc2ccccc21	-4.8%	nt	-21.4	-4.7	-0.6	-1.1	-5.4	nt
COc1ccc(Br)cc1C(=O)Nc1ccc(C(=O)O)cc1	?	-17.1	nt	-5.5	-9.5	-0.2	-4.7	-5.1
O=C(CSc1nnc(SCc2cccc3ccccc23)s1)Nc1ccc(C(=O)O)cc1	9.9%	-3.7	-6.2	7.9	-0.4	0.3	-14.2	-2.6
CN(C)CCOC1c2ccccc2CCc2ccc3ccccc3c21 (stereo not drawn)	nt	-0.6	24.9	0.3	10.9	0.2	-4.0	3.4
O=C(O)c1ccc(S(=O)(=O)N2CCC(Cc3ccccc3)CC2)cc1	nt	-2.1	-27.4	-1.6	-2.9	0.5	-5.2	1.1
CCn1cc(S(=O)(=O)NC(C)c2cc(OC)ccc2OC)cn1 (stereo not drawn)	nt	-2.1	-5.3	-1.9	-10.8	0.5	-8.8	6.2
Cc1c(C(=N)C(C#N)C#N)c(=N)oc2c1ccc1ccccc12	24.2%	20.3	4.2	2.2	-1.2	0.4	5.6	2.5
CCC1(c2ccccc2)NC(=O)N(CC(=O)Nc2ccccc2N2CCCCC2)C1=O (stereo not drawn)	nt	0.4	39.5	-0.6	-2.9	-1.1	4.2	2.3
CCNC1CCS(=O)(=O)C1 (stereo not drawn)	11.2%	-8.0	-9.6	3.5	-2.4	0.4	nt	-1.3
CCN(CCn1cccn1)Cc1c(C(=O)N2CCCCCCC2)nc2ccc(Cl)cn12	2.0%	?	8.7	-3.4	-0.6	0.2	-2.0	?
COCCNC(=O)c1c[nH]n2c(=O)cc(C3CCN(C(=O)OC(C)(C)C)CC3)nc12	7.0%	9.4	18.6	-4.1	-73.8	0.1	-6.6	1.4
Cc1ccc(-c2nn(C)c(=O)c3ccccc23)cc1S(=O)(=O)N1CCOCC1	-0.8%&6.9%	-24.6	nt	-3.7	nt	0.2	2.8	4.9
NNc1cc(C(=O)O)ccc1Cl	15.8%	3.4	-2.8	-0.6	1.1	0.1	-2.0	1.6

Other compounds follow:
SMILES	Vif A3G	Calb FLC	T cruzi inh	LANA-H2B inh	MLL AF4-AF9 inh	A1 inh	Beta apoptosis	RanGTP-Imp inh
O=C(Nc1ccc(Br)cc1)N1CCCCCCC1	13.7%	-2.4	8.9	-3.5	nt	-0.4	3.8	0.6
O=C1/C(=C/c2cccc(O)c2)SC(=S)N1CC1CCCO1 (stereo not drawn)	nt	18.9	3.9	2.6	5.5	0.8	-26.4	-0.3
CC(Oc1ccccc1)C(=O)N1CCN(c2ccc(N3CCCCCC3)nn2)CC1 (stereo not drawn)	6.2%	-2.1	8.8	-2.6	4.5	0.6	nt	2.4
c1csc(CSc2nc3ccccc3s2)c1	2.1%	-12.1	-9.3	-6.5	nt	-4.8	-4.6	-2.0
O=C(NCC1CCCO1)c1cccc(Oc2ccc([N+](=O)[O-])cc2Cl)c1 (stereo not drawn)	-8.7%	22.2	-1.2	-2.0	3.9	0.1	4.7	-2.4
Cc1ccc(S(=O)(=O)N2CCN(Cc3ccco3)CC2)cc1C	3.9%	-0.4	8.9	1.9	3.0	0.4	-1.3	0.0
CC(Nc1nc(N2CCOCC2)nc2ccccc12)c1ccccc1 (stereo not drawn)	-6.6%	31.0	31.7	2.9	-1.1	-0.7	2.8	-0.5
O=C(CN(Cc1ccco1)C(=O)CCC(=O)Nc1ccccn1)NCCc1ccccc1	-2.0%	-1.2	-21.3	0.0	nt	-0.7	-2.6	3.0
COc1cccc(C=O)c1OCCN1C(=O)c2ccccc2C1=O	nt	33.9	-15.0	-1.9	0.6	0.4	-8.0	0.2
COc1cc(Cl)ccc1OCc1cc(C(=O)N2C[C@@H]3CCC[C@H]2C3)no1	nt	-4.0	6.8	2.9	-4.8	-0.9	-0.6	2.1
Clc1ccc(SCCCN2CCCCC2)cc1	2.3%	-13.3	22.5	2.7	nt	1.4	-12.7	-3.2
Cc1ccc(-n2cccn2)c(CN2CCCC(CNC(=O)c3ccc(F)cc3)C2)c1 (stereo not drawn)	-4.4%	-4.5	3.8	4.4	0.8	0.6	5.7	1.0
CN(c1ccccc1)S(=O)(=O)c1cccc(NC(=O)CSc2n[nH]c(N)n2)c1	-7.8%	8.3	9.9	-3.5	5.4	0.0	34.2	-0.5
CN(CC(=O)Nc1cccc(F)c1)C(=O)CCCc1nc2ccccc2c(=O)[nH]1	8.0%	-3.9	8.0	nt	-2.4	-0.5	-1.0	1.7
Cc1cc(C(F)F)nn1CC(=O)NC1CCCC1	2.2%	-8.3	-16.4	-4.6	-3.8	-0.1	nt	-1.7
